Compound activity as filed in PubChem BioAssay.
VACV E9 pol inh – blocks vaccinia virus processive DNA synthesis | AID 493162 | in vitro processive DNA synthesis, absorbance read-out; active compounds read low; some inactives read as strong as hits | normalized absorbance, % (test concentration not listed) | 46,000 compounds, 0.94% hits;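 active = replicate mean up to 90% and picked by the depositor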;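 note: 100% = median of the test wells of a plate; 100 nL library stock went into each well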
Numbers without * were called inactive. Not all compounds are listed, so the mix of outcomes need not match the whole.

SMILES	VACV E9 pol inh
c1ccc2nc(N3CCOCC3)cnc2c1	91.9
OC(COc1ccc(-c2csnn2)cc1)CN1CCN(C(c2ccccc2)c2ccccc2)CC1 (stereo unspecified)	93.9
Cc1ccc(S(=O)(=O)NCC(c2ccccc2)N(C)C)cc1 (stereo unspecified)	99.8
CCC(=O)Nc1nc2nc(COC)cc(=O)n2[nH]1	100.3
Cc1cc(C)nc(NS(=O)(=O)c2ccc(-n3cccc3)cc2)n1	92.1
O=C(Nc1ncnc2sc3c(c12)CCCC3)c1ccc(F)cc1	96.4
CCSc1nc2ccccc2[nH]1	100.5
CCOC(=O)c1ccc(CSc2n[nH]c(C)n2)o1	99.7
C=CCNC(=O)c1cc(-c2ccc(Cl)c(Cl)c2)on1	101.1
CCOC(=O)C1=CN(c2ccc(C)cc2)C=C(C(=O)OCC)C1c1cccs1	100.0
CC(C)N(C(=O)CSC1=NCCS1)c1ccccc1	96.8
COc1ccc(/C=N/c2c(-c3ccco3)nc3ccccn23)cc1OC	96.4
CN(C)CCCn1cc(C2=C(c3c[nH]c4ccccc34)C(=O)NC2=O)c2ccccc21	67.5*
CC1CN(C2CC(C)(C)NC(C)(C)C2)CCC1=O (stereo unspecified)	100.4
O=C(CC(SC1CCCCC1)C(=O)O)c1ccc(Br)cc1 (stereo unspecified)	99.3
CC(NC(=O)Oc1ccccc1)C(c1cccs1)N1CCN(c2ccccc2)CC1 (stereo unspecified)	99.2
Cc1cccc(N2C(=O)CC(N(O)c3ccccc3)C2=O)c1C (stereo unspecified)	92.6
CCOC(=O)c1cn2ccccc2c1C(=O)OCC	94.1
CN1CCN(C(=S)NC(CC(=O)c2ccccc2)c2ccccc2)CC1 (stereo unspecified)	99.0
CCOC(=O)c1c(Sc2ccccc2)cnn1C(=O)c1ccc(C(F)(F)F)cc1	99.8
O=C1COc2ccc(N3Cc4ccccc4C3)cc2N1	115.6
CC1(C)C2CC[C@]3(C)C(C(=O)C=C4[C@@H]5C[C@@](C)(C(=O)O)CC[C@]5(C)CC[C@]43C)[C@@]2(C)CC[C@@H]1O (stereo partly specified)	100.3
Cc1ccc(-c2[nH]nc3c2C(c2ccccc2)C2=C(CC(C)(C)CC2=O)N3)cc1 (stereo unspecified)	97.8
CO[C@@H]1C[C@@H](C[C@H]2CC[C@H](C)[C@H]([C@@H](C)C(=O)O)O2)O[C@]2(O[C@](C)([C@H]3CC[C@@](C)(C4O[C@@H](C5O[C@@](O)(CO)[C@H](C)C[C@@H]5C)C[C@@H]4C)O3)C[C@H]2C)[C@@H]1C (stereo partly specified)	100.5
C=CCn1cc(C=C2C(=O)OC(c3ccccc3)OC2=O)c2ccccc21 (stereo unspecified)	100.0

The final five compounds of the part above are carried over, then new ones follow.
SMILES	VACV E9 pol inh
O=C1COc2ccc(N3Cc4ccccc4C3)cc2N1	115.6
CC1(C)C2CC[C@]3(C)C(C(=O)C=C4[C@@H]5C[C@@](C)(C(=O)O)CC[C@]5(C)CC[C@]43C)[C@@]2(C)CC[C@@H]1O (stereo partly specified)	100.3
Cc1ccc(-c2[nH]nc3c2C(c2ccccc2)C2=C(CC(C)(C)CC2=O)N3)cc1 (stereo unspecified)	97.8
CO[C@@H]1C[C@@H](C[C@H]2CC[C@H](C)[C@H]([C@@H](C)C(=O)O)O2)O[C@]2(O[C@](C)([C@H]3CC[C@@](C)(C4O[C@@H](C5O[C@@](O)(CO)[C@H](C)C[C@@H]5C)C[C@@H]4C)O3)C[C@H]2C)[C@@H]1C (stereo partly specified)	100.5
C=CCn1cc(C=C2C(=O)OC(c3ccccc3)OC2=O)c2ccccc21 (stereo unspecified)	100.0
CN(C(=O)COC(=O)c1cncc(Br)c1)C1CCCCC1	104.4
CC(=O)OCC(=O)Nc1cccc(C)c1	100.0
C=CCSc1nnc(Cc2cc(=O)[nH]c(=O)[nH]2)n1-c1ccc(OC)cc1	79.1
CC1(C(=O)c2ccccc2)C2c3ccccc3OC(=O)C21C(=O)N1CCOCC1 (stereo unspecified)	100.2
Cc1cc(=O)[nH]c(SCc2cn3ccccc3n2)n1	100.7
CCCCn1c(CCNC(=O)C(C)C)nc2ccccc21	91.0
CC(CC(=O)NC1CCCCCC1)CC1=NS(=O)(=O)c2ccccc2N1 (stereo unspecified)	99.8
COc1cc2c(cc1OC)C(c1ccccc1)N(C(=O)C(C)(C)C)CC2 (stereo unspecified)	100.6
O=C(c1cc(-c2ccc(F)cc2)n[nH]1)N1CCN(c2cccc(Cl)c2)CC1	101.6
O=c1oc2ccccc2cc1-c1nc2ccccc2o1	103.3
CCN(CC)C(=O)CCn1nc(-c2ccc(C)cc2)c2ccccc2c1=O	100.2
COC(=O)c1ccc(NC(=O)Cn2nc(SC)n(N)c2=S)cc1	98.1
Cc1nc2nc(CSc3ccc(Cl)cc3)cc(=O)n2[nH]1	88.4
O=c1c(-c2ccc(Cl)cc2)coc2cc(O)ccc12	99.2
CN1C(N)=NC(=O)/C1=C/c1cccnc1	100.1
CN1CCN(C(=O)CSc2c(-c3ccccc3)c3cc(Cl)ccc3[nH]c2=O)CC1	100.1
Cc1nn2c(=O)c3ccc(C(=O)O)cc3nc2s1	100.1
O=C(CCC1CCCCC1)Nc1ccc2c(c1)OCCO2	102.5
CC(=O)OC1=C(Sc2ccc(Cl)cc2)C(=O)CCC1	100.3
c1ccc(OCCSc2nc3ccccc3[nH]2)cc1	100.5
OC(CNCc1ccc(Cl)cc1)COc1ccc(F)cc1Cl (stereo unspecified)	91.5
CC(=O)n1c2ccccc2c2cc(Br)ccc21	97.1
COC(=O)C(C)Sc1nc2c([nH]c3ccccc32)c(=O)n1C (stereo unspecified)	93.2
Cn1c(CSc2cc(C(F)(F)F)nc3ccccc23)n[nH]c1=S	96.2
O=C(Oc1ccc(C2SCCS2)cc1)c1ccccc1Cl	100.4

Next part:
SMILES	VACV E9 pol inh
CCN(CC)CCN1C(=O)Cn2c(C)c(C)c3cccc1c32	93.3
CCOC(=O)c1cc(-c2ccc(F)cc2)n(CCC(=O)Nc2nc3ccc(C)cc3s2)c1C	109.3
CC(C)C(=O)NCCSc1c(-c2ccccc2)[nH]c2ccccc12	91.3
CSc1cccc(NC(=O)CSc2nc3ccccc3o2)c1	100.0
CC(NC(=O)c1ccc(=O)[nH]c1)C12CC3CC(CC(C3)C1)C2 (stereo unspecified)	99.3
OC(c1cc(C(F)(F)F)nc2c(C(F)(F)F)cccc12)C1CCCCN1 (stereo unspecified)	101.1
Cc1ccc(S(=O)(=O)CCC(=O)Nc2nccs2)cc1	95.0
CC(C)(C)NC(=O)C1CC2CCCC(C1)C2=O (stereo unspecified)	102.4
CS(=O)C1CCCCC1(O)CSc1nc(-c2cccs2)cc(-c2ccccc2)c1C#N (stereo unspecified)	100.0
CC1SCC(NC(=O)c2ccccc2Cl)CS1 (stereo unspecified)	91.3
CC1(C)CC(NCc2ccccc2)=CC(=C(C#N)C#N)C1	90.7
CC(=O)Nc1nonc1Nc1cc(C)nn1-c1ccccc1	101.2
COC(=O)c1ccc(C2(C#N)C(=O)Nc3ccccc32)cc1 (stereo unspecified)	99.9
CS(=O)(=O)N1CCC(C(=O)NC2CCCC2)CC1	102.6
CC1=NN(c2ccc(C)c(C)c2)C(=O)/C1=C/c1ccc2c(c1)n(C)c(=O)n2C	100.3
COC(=O)CC1COc2ccccc2N1C(=O)c1ccc(Cl)cc1 (stereo unspecified)	100.0
Cc1cccc(Cn2nnc(C(=O)Nc3ccc(Br)cc3)c2N)c1	110.3
CCN(CC)c1ccc(C(=O)N=c2sc3cc(OC)ccc3n2CCOC)cc1	109.6
O=C1CCCN2N=C(SCc3ccccc3)SC2=N1	100.6
COc1ccccc1-c1nnc(NC(=O)CSCc2ccccc2)s1	99.0
Cc1ccc(-n2nc(C)c3c(C)cc(C(=O)O)nc32)cc1C	94.9
COc1ccc(OCC(O)Cn2cnc3ccccc32)cc1 (stereo unspecified)	100.2
C[N+]1(CC(O)CN2CCCC2=O)CCCCCC1 (stereo unspecified)	101.1
O=C(O)CSCCc1ccncc1	99.1
Cc1c(C)n(Cc2ccc(Br)cc2)c(=O)n(Cc2ccc(Br)cc2)c1=O	88.1

Structural class: the entries above containing a thiophene ring, fused or not
SMILES	VACV E9 pol inh
O=C(Nc1ncnc2sc3c(c12)CCCC3)c1ccc(F)cc1	96.4
CCOC(=O)C1=CN(c2ccc(C)cc2)C=C(C(=O)OCC)C1c1cccs1	100.0
CC(NC(=O)Oc1ccccc1)C(c1cccs1)N1CCN(c2ccccc2)CC1 (stereo unspecified)	99.2
CS(=O)C1CCCCC1(O)CSc1nc(-c2cccs2)cc(-c2ccccc2)c1C#N (stereo unspecified)	100.0

Further compounds
SMILES	VACV E9 pol inh
Brc1ccc2[nH]cc(C=Nc3ccc4c(c3)OCO4)c2c1	99.7
COc1ccc(C(=O)c2oc3ccccc3c2NC(=O)C(C)(C)C)cc1	104.1
O=C(c1cccnc1)N(Cc1ccccc1)C1(C(=O)Nc2ccccc2)CCCCC1	100.4
ClC(Cl)=Cn1nnnc1-c1ccccc1	100.8
CSc1sc(-c2ccnc(SCC(=O)C(C)(C)C)n2)c2c1C(=O)CC(C)(C)C2	99.0
COCc1cc(C)nc2sc(C(O)c3ccccc3)c(NC(=O)c3ccco3)c12 (stereo unspecified)	101.2
CC(C)C[N+]1(C)Cc2ccccc2C1	100.0
O=C(CCCc1ccccc1)Nc1scc2c(=O)oc3ccccc3c12	99.5
O=C(NCCC1=CCCCC1)C(c1ccccc1)c1ccccc1	99.9
O=C(COc1ccccc1)N1CCN=C1c1ccccc1	99.9
COc1ccccc1N(CCC#N)C(=O)c1cncc(Br)c1	100.4
O=c1c(O)c(-c2ccc(O)cc2O)oc2cc(O)cc(O)c12	98.4
CC(=O)Nc1ccc(S(=O)(=O)c2ccc(N)cc2)cc1N	98.7
C=CCN1C(=O)/C(=C\c2ccc(C(=O)O)cc2)S/C1=N\c1nnc(CC)s1	100.4
Cn1ncc(C(=O)CC#N)c1C(F)(F)F	93.9
CC(C)c1ccccc1NC(=O)COC(=O)c1cc(Cl)cc(Cl)c1	104.8
O=S(=O)(Nc1ccc(O)c(Sc2nc3ccccc3s2)c1)c1cccs1	99.9
CCOC(=O)c1cnc2cccc[n+]2c1Cl	100.0
Cc1nn(C(C)C(=O)NC2CCCCCC2)c(=O)c2cc3occc3n12 (stereo unspecified)	103.3
Oc1ccccc1-c1nnc2n1CCC2	101.8
O=C1C=C(NC2CCCC2)CC(c2ccccc2)C1 (stereo unspecified)	100.0
CCn1c(N)c(C(=O)N2CCCCC2)sc1=S	98.0
NC(=O)CSc1nc2cc3c(cc2c(=O)n1CCCC(=O)NCc1ccc2c(c1)OCO2)OCO3	89.6
Cc1cc(C(C)(C)C)cc(S(=O)(=O)Nc2ccc(C(=O)N3CCC(C)CC3)cc2)c1C	100.1
Nc1cc(N)nc(SCc2ccccc2)n1	101.1

Next part:
SMILES	VACV E9 pol inh
COc1ccc(C(=O)Cc2ccccc2)cc1	92.8
CC1CCCCN1CC(O)COCc1ccccc1 (stereo unspecified)	102.6
COc1ccc(-c2nnc(NC(=O)c3ccc(S(=O)(=O)N4CCC(C)CC4)cc3)o2)c(OC)c1	108.3
Cn1cc(C(=O)N2CCOCC2)c2ccccc21	114.8
C=CCn1c(CO)nc2ccccc21	101.0
CCOC(=O)N1CCC(NC(=O)c2cc(C)cc(C)c2)CC1	114.9
S=c1nc(SCCOc2ccccc2)[nH]c2ccccc12	100.4
CC1SC(=S)NN1c1ccccc1 (stereo unspecified)	95.2
CC(N/C=C1/CCCCC1=O)C1CC2CCC1C2 (stereo unspecified)	98.0
CC1CCN(c2nc(N3CCC(C)CC3)nc(N3CCC(C)CC3)n2)CC1	100.4
Cc1ccccc1OCC(=O)NC(c1ccccc1)c1c(O)ccc2ccccc12 (stereo unspecified)	100.2
Cc1[nH]n(-c2ccccc2)c(=O)c1C(=O)Nc1ccccc1	96.1
O=C(O)c1ccc(N2CCCS2(=O)=O)cc1	102.4
Cn1ccc(NC(=O)Nc2ccccc2)n1	103.0
Cc1cccc(NC(=O)CCSc2ccccc2)c1C	99.6
CN1CCN(CC(O)c2ccccc2)CC1 (stereo unspecified)	97.6
CCCc1ccc(Oc2ccc(NC(=O)C3CC3C(=O)O)cn2)c(OC)c1 (stereo unspecified)	85.3

Reformatted as comma-separated lines: part of the list above
canonical_smiles,VACV E9 pol inh
C=CCn1c(CO)nc2ccccc21,101.0
Cc1[nH]n(-c2ccccc2)c(=O)c1C(=O)Nc1ccccc1,96.1
